NOMO-1 viab: STK33 inhibitor candidate reducing NOMO-1 cell viability; inhibition, % (test concentration not listed); 37,000 tested, 7.5% active; AID 2330; NOMO-1 AML viability, CellTiter-Glo luminescence, 72 h;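 active means most replicates above 80%; inconclusive means exactly half above 80%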;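 further: wells of about 30 µL received 25 nL stock; 0% = median of vehicle wells and 100% = reference inhibitor level; the first replicate is given; inactives centre near 10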
Active calls of the source: *; ? = inconclusive. These rows are one share of the data; count on the stated rates, not on these rows.

SMILES	NOMO-1 viab
C[C@@H]1CCCCO[C@H](CN(C)S(=O)(=O)c2ccc(Cl)cc2)[C@@H](C)CN([C@H](C)CO)C(=O)c2cc(NS(C)(=O)=O)ccc2O1	6
C[C@H](CO)N1C[C@H](C)[C@H](CN(C)Cc2ccccc2)Oc2c(NC(=O)c3ccc(-c4nccs4)cc3)cccc2C1=O	16
COc1ccc(S(=O)(=O)Nc2ccc3c(c2)C(=O)N([C@@H](C)CO)C[C@@H](C)[C@@H](CN(C)C(=O)Nc2ccc(C(F)(F)F)cc2)O3)cc1	21
C[C@@H]1CN([C@@H](C)CO)C(=O)c2cc(NC(=O)Nc3ccccc3)ccc2O[C@H]1CN(C)Cc1ccc(C(=O)O)cc1	-5
C[C@H]1CN([C@@H](C)CO)C(=O)c2cc(NC(=O)Nc3cccc4ccccc34)ccc2O[C@H]1CN(C)Cc1ccc(C(=O)Nc2ccccc2N)cc1	27
C[C@H](CO)N1C[C@H](C)[C@H](CN(C)C(=O)Nc2ccccc2)Oc2c(NC(=O)c3cnccn3)cccc2C1=O	-12
Cc1noc(C)c1NC(=O)N(C)C[C@@H]1Oc2ccc(NS(=O)(=O)c3ccc(F)cc3)cc2CC(=O)N([C@@H](C)CO)C[C@@H]1C	9
CCc1ccccc1OCC(=O)Nc1sc2c(c1C(N)=O)CCCC2	35
COc1ccc(CN(C)C[C@@H]2Oc3c(NC(=O)c4nc5ccccc5s4)cccc3C(=O)N([C@H](C)CO)C[C@H]2C)cc1	74
CCN(CC)C(=S)NC(=S)c1ccc(C)cc1	122*
CCC(=O)Nc1ccc(Cl)c(NC(=O)COc2ccc(Br)cc2)c1	19
Clc1ccc2nc(NCc3ccccn3)nc(-c3ccccc3)c2c1	51
c1coc(Cn2c(SCc3nc4ccccc4[nH]3)nnc2-c2ccco2)c1	-3
C[C@H]1CN([C@@H](C)CO)C(=O)c2cc(NS(C)(=O)=O)ccc2O[C@@H]1CN(C)S(=O)(=O)c1ccc(F)cc1	-5
COc1ccc(S(=O)(=O)Nc2ccc3c(c2)C(=O)N([C@H](C)CO)C[C@H](C)[C@H](CN(C)Cc2ccccc2)OCCCC[C@@H](C)O3)cc1	36

A run of entries from the list above, as a working copy:
SMILES	NOMO-1 viab
C[C@@H]1CCCCO[C@H](CN(C)S(=O)(=O)c2ccc(Cl)cc2)[C@@H](C)CN([C@H](C)CO)C(=O)c2cc(NS(C)(=O)=O)ccc2O1	6
C[C@H](CO)N1C[C@H](C)[C@H](CN(C)Cc2ccccc2)Oc2c(NC(=O)c3ccc(-c4nccs4)cc3)cccc2C1=O	16
COc1ccc(S(=O)(=O)Nc2ccc3c(c2)C(=O)N([C@@H](C)CO)C[C@@H](C)[C@@H](CN(C)C(=O)Nc2ccc(C(F)(F)F)cc2)O3)cc1	21
C[C@@H]1CN([C@@H](C)CO)C(=O)c2cc(NC(=O)Nc3ccccc3)ccc2O[C@H]1CN(C)Cc1ccc(C(=O)O)cc1	-5
C[C@H]1CN([C@@H](C)CO)C(=O)c2cc(NC(=O)Nc3cccc4ccccc34)ccc2O[C@H]1CN(C)Cc1ccc(C(=O)Nc2ccccc2N)cc1	27

Going on with the list.
SMILES	NOMO-1 viab
Cc1nc2ccccn2c1-c1csc(NCc2ccco2)n1	18
O=C(NCCNS(=O)(=O)c1ccccc1)c1ccc([N+](=O)[O-])cc1	8
CCc1nc(SCC(=O)Nc2ccc(C(C)=O)cc2)n[nH]1	23
CC(C)NC(=O)N(C)C[C@H]1Oc2c(NS(=O)(=O)c3ccc(F)cc3)cccc2C(=O)N([C@H](C)CO)C[C@H]1C	26
Cc1c(CCC(=O)O)c(=O)oc2cc(OCc3ccccc3F)ccc12	8
COc1ccc(C)cc1NC(=O)CN(c1cccc2ccccc12)S(C)(=O)=O	0
COc1ccc(NC(=O)Nc2ccc3c(c2)C(=O)N([C@@H](C)CO)C[C@H](C)[C@@H](CN(C)Cc2ccncc2)O3)cc1	22
CC(CC(O)C1OC1(C)C)[C@@H]1CCC2(C)C3=CCC4C(C)(C)C(=O)CCC4(C)C3CC[C@@]12C (stereo partly specified)	101*
COc1ccc(Cl)cc1NC(=O)CSc1nc2ccc(NC(=O)c3ccc(C)cc3)cc2s1	41
C[C@@H]1CN([C@@H](C)CO)C(=O)c2cc(NC(=O)C3CCCCC3)ccc2O[C@@H]1CN(C)C(=O)Nc1ccc2c(c1)OCO2	22
COC(=O)/C(=C1\OC(=O)C(c2ccccc2)C1=O)c1ccccc1 (stereo unspecified)	-1
CC(=O)C(Sc1nc(N(C)C)nc(N(C)C)n1)C(=O)Nc1ccccc1 (stereo unspecified)	19
C[C@@H]1CCCCO[C@@H](CN(C)C(=O)Nc2cccc3ccccc23)[C@@H](C)CN([C@H](C)CO)C(=O)c2cc(N(C)C)ccc2O1	37
CS(=O)(=O)N(CC(=O)Nc1ccc(F)cc1F)c1ccc(Cl)cc1	-1
C[C@H]1CN([C@@H](C)CO)C(=O)Cc2cc(NC(=O)Nc3ccc(F)cc3)ccc2O[C@H]1CN(C)Cc1ccncc1	3
C[C@H]1CN([C@@H](C)CO)C(=O)Cc2cc(N(C)C)ccc2O[C@@H]1CN(C)Cc1ccccc1	-7
C[C@@H]1CN([C@H](C)CO)C(=O)c2cccc(NC(=O)C3CCCCC3)c2O[C@@H]1CN(C)Cc1ccc(C(F)(F)F)cc1	47
CCC(Sc1nc(C)cc(C)n1)C(=O)Nc1ccc(-c2nc3ccc(C)cc3s2)cc1 (stereo unspecified)	20
COc1ccc(NC(=O)N(C)C[C@H]2Oc3ccc(NC(=O)Nc4ccccc4)cc3CC(=O)N([C@@H](C)CO)C[C@H]2C)cc1	-9
O=C(CNS(=O)(=O)c1ccc(Br)cc1)Nc1cccc2ccccc12	21
C[C@@H]1CN([C@@H](C)CO)C(=O)c2cc(NC(=O)CCCCCC(=O)Nc3ccccc3N)ccc2O[C@H]1CN(C)S(=O)(=O)c1ccc(F)cc1	?
COc1ccc(NC(=O)N(C)C[C@H]2Oc3c(NC(=O)NC4CCCCC4)cccc3C(=O)N([C@@H](C)CO)C[C@H]2C)cc1	8
CNC(=O)CN(c1cc(Cl)c(Cl)cc1Cl)S(C)(=O)=O	-5
COc1ccc(CN(C)C[C@H]2Oc3ccc(NC(=O)Cc4cn(C)c5ccccc45)cc3C(=O)N([C@H](C)CO)C[C@H]2C)cc1	0
CCN(CC)S(=O)(=O)c1ccc(OC)c(NC(=O)c2cccnc2)c1	2
Cc1cccc(OCC(=O)Nc2ccc(Cl)c(-c3nc4ccccc4o3)c2)c1	77
COC(=O)c1ccccc1NC(=O)c1ccc(NC(=O)C(C)Oc2ccccc2)cc1 (stereo unspecified)	0
COC(=O)c1ccc(NC(=O)CN(c2ccc(F)c(Cl)c2)S(C)(=O)=O)cc1	25
COc1cc2c(cc1O)C(Cc1ccc(O)cc1)N(C)CC2 (stereo unspecified)	25
COc1ccc(NC(=O)Nc2ccc3c(c2)C(=O)N([C@H](C)CO)C[C@H](C)[C@H](CN(C)Cc2ccc(Cl)c(Cl)c2)O3)cc1	109*
COc1ccc(S(=O)(=O)Nc2cc(C)cc(C)c2)cc1	96*
COc1cc(-c2cc(=O)c3c(O)c(OC)c(OC)c(OC)c3o2)cc(OC)c1OC	12
C[C@@H]1CN([C@H](C)CO)C(=O)Cc2cc(NC(=O)Nc3ccc4c(c3)OCO4)ccc2O[C@H]1CN(C)C(=O)Nc1ccc(C(F)(F)F)cc1	28
C[C@H]1CN([C@@H](C)CO)C(=O)c2cc(NC(=O)Cc3cn(C)c4ccccc34)ccc2O[C@H]1CN(C)S(C)(=O)=O	2
CC(NC(=O)c1ccccc1)c1nc2ccccc2n1Cc1ccc(Cl)cc1Cl (stereo unspecified)	21
COC(=O)CSc1nc(C)c2ccc(OC)cc2n1	2
C[C@@H]1CN([C@H](C)CO)C(=O)c2cc(NC(=O)c3ccncc3)ccc2O[C@H]1CN(C)Cc1ccc(Cl)c(Cl)c1	48
CCOC(=O)c1cnc(SCC(=O)Nc2ccc(F)c(F)c2F)nc1N	5
c1ccc(-c2nnc(SCc3nc4ccccc4[nH]3)n2C2CCCCC2)cc1	24
O=C(CSc1nnc(-c2ccccc2[N+](=O)[O-])o1)c1cccs1	-15
COc1ccc(C)cc1S(=O)(=O)N(CC(=O)O)c1ccc(C)cc1	-6
CNC[C@@H]1Oc2ccc(NS(=O)(=O)c3ccc(OC)cc3)cc2CC(=O)N([C@H](C)CO)C[C@@H]1C	12
C[C@@H]1CN([C@@H](C)CO)C(=O)c2cccc(NS(=O)(=O)c3ccccc3)c2O[C@H]1CN(C)S(=O)(=O)c1ccc(Cl)cc1	-15
Cc1noc(C)c1NC(=O)N(C)C[C@@H]1Oc2c(NS(C)(=O)=O)cccc2C(=O)N([C@@H](C)CO)C[C@H]1C	3
Cc1ccc(S(=O)(=O)Nc2ccc3c(c2)CC(=O)N([C@H](C)CO)C[C@H](C)[C@H](CN(C)S(=O)(=O)c2cn(C)cn2)O3)cc1	5

Exported field by field: part of the list above
c1ccc(-c2nnc(SCc3nc4ccccc4[nH]3)n2C2CCCCC2)cc1
  NOMO-1 viab = 24

COC(=O)/C(=C1\OC(=O)C(c2ccccc2)C1=O)c1ccccc1 (stereo unspecified)
  NOMO-1 viab = -1

Structures above containing a COOH group, in the order listed:
SMILES	NOMO-1 viab
C[C@@H]1CN([C@@H](C)CO)C(=O)c2cc(NC(=O)Nc3ccccc3)ccc2O[C@H]1CN(C)Cc1ccc(C(=O)O)cc1	-5
Cc1c(CCC(=O)O)c(=O)oc2cc(OCc3ccccc3F)ccc12	8
COc1ccc(C)cc1S(=O)(=O)N(CC(=O)O)c1ccc(C)cc1	-6

The listing continues:
SMILES	NOMO-1 viab
C[C@@H]1CN([C@H](C)CO)C(=O)c2cccc(NC(=O)CCCCCC(=O)Nc3ccccc3N)c2O[C@@H]1CN(C)Cc1ccccc1	48
C[C@@H]1CN([C@H](C)CO)C(=O)c2cccc(NC(=O)Nc3ccc(C(F)(F)F)cc3)c2O[C@H]1CN(C)S(=O)(=O)c1ccc(Cl)cc1	45
Cc1noc(C)c1S(=O)(=O)Nc1ccc2c(c1)CC(=O)N([C@H](C)CO)C[C@H](C)[C@H](CN(C)C(=O)Nc1ccc(C(F)(F)F)cc1)O2	0
Cc1ccccc1NS(=O)(=O)c1ccc(Cl)c(C(=O)Nc2ccccc2C(=O)O)c1	-8
C[C@@H]1CN([C@H](C)CO)C(=O)c2cc(N(C)C)ccc2O[C@H]1CN(C)Cc1ccc(-c2ccccc2)cc1	61
Cc1ccc(NS(=O)(=O)c2ccccc2)c(NS(=O)(=O)c2ccccc2)c1	-16
Cc1ccc(S(=O)(=O)Nc2ccc3c(c2)C(=O)N([C@@H](C)CO)C[C@@H](C)[C@@H](CN(C)Cc2ccccc2)O3)cc1	27
O=C(COc1ccccc1[N+](=O)[O-])Nc1cc(-c2nc3ccccc3s2)c(Cl)cc1Cl	1
N#Cc1c(NC(=O)CCn2cnc3ccccc3c2=O)sc2c1CCC2	8
Cc1nn(Cc2ccc(F)cc2)c(C)c1NC(=O)c1cc(-c2cccnc2)nc2c(Cl)cccc12	54
Cc1ccc([N+](=O)[O-])cc1NC(=O)C1CCCN(S(=O)(=O)c2ccc(F)cc2)C1 (stereo unspecified)	16
C=CCN1C(=O)/C(=C/c2cc(C)n(CCOC)c2C)C(=O)NC1=S	10
C[C@@H]1CN([C@@H](C)CO)C(=O)c2cc(NC(=O)C3CCCCC3)ccc2O[C@H]1CN(C)Cc1ccccc1	-4
COc1ccc(CN(C)C[C@@H]2Oc3ccc(NC(=O)Nc4cccc5ccccc45)cc3CC(=O)N([C@H](C)CO)C[C@H]2C)cc1	8
O=[N+]([O-])c1ccc(NCCNCCO)cc1	11
C[C@H]1CN([C@@H](C)CO)C(=O)c2cc(NS(C)(=O)=O)ccc2O[C@H]1CN(C)Cc1ccc(C(=O)O)cc1	-2
Cc1noc(C)c1S(=O)(=O)N(C)C[C@H]1OCCCC[C@@H](C)Oc2ccc(NC(=O)CCC(F)(F)F)cc2C(=O)N([C@H](C)CO)C[C@@H]1C	-17
C[C@@H]1CN([C@H](C)CO)C(=O)c2cc(NS(C)(=O)=O)ccc2O[C@@H]1CN(C)Cc1ccc(Cl)c(Cl)c1	9
C[C@@H]1CN([C@H](C)CO)C(=O)c2cccc(NC(=O)c3ccncc3)c2O[C@@H]1CN(C)CC1CC1	-3
COc1cc(O)cc2c1C(=O)OC(C)C2 (stereo unspecified)	10
O=C(CSc1ncn(-c2ccccc2)n1)Nc1ccccc1Br	13
Cc1cc(=O)[nH]c(SCCCOc2ccc([N+](=O)[O-])cc2)n1	-13
COC(=O)c1ccc(C(=O)Nc2ccc(C(F)(F)F)cc2)nc1	15
C[C@@H]1CN([C@@H](C)CO)C(=O)c2cc(NC(=O)CCC(F)(F)F)ccc2O[C@H]1CN(C)Cc1ccncc1	-6
CCCCC/C=C\C/C=C\CCCCCCCC(N)=O	19
Cc1c(C(=O)N(C)C)sc(NC(=O)c2cc(-c3ccccn3)nc3ccc(Cl)cc23)c1C#N	16
C[C@@H]1CN([C@H](C)CO)C(=O)c2cc(NS(=O)(=O)c3cccs3)ccc2O[C@@H]1CN(C)S(=O)(=O)c1ccccc1	3
C[C@H]1CN([C@@H](C)CO)C(=O)c2cccc(N(C)C)c2O[C@@H]1CN(C)Cc1ccncc1	-10
CC(C)NC(=O)Nc1ccc2c(c1)C(=O)N([C@H](C)CO)C[C@H](C)[C@H](CN(C)C(=O)C1CCCCC1)OCCCC[C@@H](C)O2	29
COc1ccc(S(=O)(=O)N(C)C[C@@H]2Oc3ccc(NC(=O)CCCN(C)C)cc3CC(=O)N([C@@H](C)CO)C[C@@H]2C)cc1	11
CC(=O)O[C@@H]1[C@@H](OC(=O)/C=C/c2ccccc2)[C@@H](OC(=O)/C=C/c2ccccc2)[C@H](O[C@H]2[C@@H]3C=CO[C@@H](O[C@@H]4O[C@H](CO)[C@@H](O)[C@H](O)[C@H]4O)[C@@H]3[C@@]3(CO)O[C@@H]23)O[C@H]1C	24
C[C@@H]1CN([C@@H](C)CO)C(=O)c2cc(NC(=O)NC3CCCCC3)ccc2O[C@H]1CN(C)S(=O)(=O)c1ccc(F)cc1	-29
COc1ccc(NC(=O)CSc2nnc(-c3ccncc3)o2)cc1	-9
